FGF22 binding: binders of human FGF22 protein, primary screen, FGF22 synaptogenesis inhibitor project, biophysical, thermal shift, single point; AID 651658, 2012; recombinant FGF22 thermal shift, SYPRO orange fluorescence; percent of sucrose octasulfate shift, DMSO zero; actives 1.5% (n = 340,000); Fibroblast growth factor 22 (Homo sapiens), Q9HCT0; calls only at 9.99 µM;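 active = melting point raised past a set limit in the mean and every replicate; inconclusive = no clear call; three in four hits are not shown here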
Target sequence (Q9HCT0 whole entry, looked up): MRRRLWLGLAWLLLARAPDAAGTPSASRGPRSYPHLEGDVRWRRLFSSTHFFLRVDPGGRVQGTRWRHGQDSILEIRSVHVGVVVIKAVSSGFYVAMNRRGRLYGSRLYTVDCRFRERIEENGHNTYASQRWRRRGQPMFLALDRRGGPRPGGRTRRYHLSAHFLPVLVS
RanGTP-Impb inh: inhibitors of RanGTP-importin-beta interaction, primary screen, biochemical, FRET, CFP-Ran, YFP-importin-beta, homogeneous; Ran GTPase (GTP-bound) - importin-beta complex; cell-free CFP-Ran/YFP-importin-beta FRET ratio; actives 1.1% (n = 300,000); inhibition, % (concentration not given with the values);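 active = most replicates above 15%; inconclusive = exactly half above 15%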;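 note: 0% = DMSO wells and 100% = Ran loaded with GDP instead of GTP; wells of about 40 µL received 100 nL stock; the first replicate is given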
Calb FLC: C. albicans growth inhibition with fluconazole, primary screen, CaCi-2 strain, Alamar Blue fluorescence | C. albicans CaCi-2 (fluconazole-resistant clinical isolate) + fluconazole, 48 h | growth inhibition, % (no concentration beside the values) | actives 0.57% (n = 300,000);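 active = most replicates above 75%; inconclusive = exactly half above 75%; inactive = most below 75%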;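 note: all wells also contain fluconazole at 8 µg/ml as a sub-toxic cotreatment; 0% = median of DMSO wells and 100% = median of geldanamycin control wells; wells of about 8 µL received 7.5 nL stock; the first replicate is given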
ALR H2O2 inh: inhibitors of human ALR sulfhydryl oxidase, primary screen, biochemical, H2O2 detection, HRP-luminol luminescence, single point. purified ALR, DTT oxidation. actives 3.8% (n = 290,000). FAD-linked sulfhydryl oxidase ALR (Homo sapiens), P55789. inhibition, % (test concentration not listed);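 active = mean and each replicate at 75% or more; inconclusive = only one of the two met; inactive = neither met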;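 note: stock transfer was 7.5 nL into about 7.5 µL; 0% = neutral wells and 100% = wells with inactivated enzyme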
Target sequence (P55789 whole entry, looked up): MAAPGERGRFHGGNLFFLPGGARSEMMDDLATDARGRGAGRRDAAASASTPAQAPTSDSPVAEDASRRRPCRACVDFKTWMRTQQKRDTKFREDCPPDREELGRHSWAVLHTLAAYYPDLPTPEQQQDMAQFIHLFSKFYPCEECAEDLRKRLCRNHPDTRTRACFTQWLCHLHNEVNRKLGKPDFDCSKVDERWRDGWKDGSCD
Ecoli rRNA inh: reduced GFP signal of wild-type E. coli, primary screen, bacterial rRNA inhibitor project, GFP/RFP fluorescence, OD600, single point. E. coli WT GFP vs humanized-ribosome RFP mutants, 24 h; hits give low values; DMSO median 0, no signal -100. GFP signal change (wild-type ribosome), % (test concentration not listed). actives 1.6% (n = 350,000). AID 720706, 2013;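 active = significant combined selectivity score with lowered wild-type GFP, culture density cut under 30%, mutant RFP and density less affected; inactive = any of these conditions unmet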; note: one replicate is shown; some compounds called inactive have numbers as strong as hits
MLL AF4-AF9 inh: inhibitors of AF4 peptide binding to AF9, primary screen, biochemical, AlphaScreen, biotin-AF4 peptide, FLAG-AF9, single point. Protein AF-9 (Homo sapiens), P42568. inhibition, % at 10 µM. actives 0.47% (n = 350,000);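 active = every replicate reaching a set inhibition limit, whatever the replicate mean, cut at about 25% in these data; inconclusive = mean inhibition reaches that limit but some replicates miss it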;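 note: 0% = plate neutral control median and 100% = total signal loss; the record names both 10 and 1 µM as test concentration; the first replicate is given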
Target sequence (P42568 whole entry, looked up): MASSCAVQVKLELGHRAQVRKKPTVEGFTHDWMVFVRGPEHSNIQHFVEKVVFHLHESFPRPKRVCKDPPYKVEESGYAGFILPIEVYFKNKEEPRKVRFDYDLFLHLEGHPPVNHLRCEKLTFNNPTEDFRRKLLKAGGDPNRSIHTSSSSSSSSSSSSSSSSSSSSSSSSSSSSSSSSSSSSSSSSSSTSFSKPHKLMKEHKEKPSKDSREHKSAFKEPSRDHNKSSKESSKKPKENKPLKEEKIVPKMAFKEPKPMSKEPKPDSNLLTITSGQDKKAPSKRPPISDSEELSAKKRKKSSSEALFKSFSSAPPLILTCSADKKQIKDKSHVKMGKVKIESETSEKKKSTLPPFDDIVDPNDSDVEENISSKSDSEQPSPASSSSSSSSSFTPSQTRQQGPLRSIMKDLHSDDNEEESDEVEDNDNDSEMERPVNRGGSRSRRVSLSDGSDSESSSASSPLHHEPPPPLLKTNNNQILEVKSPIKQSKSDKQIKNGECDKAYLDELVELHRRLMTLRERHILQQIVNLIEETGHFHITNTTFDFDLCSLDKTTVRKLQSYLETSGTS
T cruzi repl: inhibitors of intracellular T. cruzi growth, primary screen, luminescence, NIH3T3 host cells | T. cruzi beta-gal in NIH3T3, 90 h | inhibition, % (no concentration beside the values) | actives 1.4% (n = 300,000) | AID 1885, 2009;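 active = mean inhibition across valid replicates above about 55%, limit read from the data; inconclusive = mean below that limit but half or more replicates reach it; inactive = mean below it, under half of replicates reach it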;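 note: signal also drops with host cell toxicity which is not excluded here; 0% = plate median of DMSO wells and 100% = zero luminescence signal; higher percent means less beta-gal luminescence so fewer parasites; stock transfer was 50 nL into about 50 µL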
Beta cell apopt: inhibitors of cytokine-induced beta cell apoptosis, primary screen, luminescence; protection from apoptosis, % (no concentration beside the values); INS-1E cytokine-induced death, ATP luminescence, 48 h; percent of positive-control rescue, neutral wells zero; actives 0.8% (n = 300,000); AID 435005, 2010;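 active = all replicates at 75% or more, or half of them and the mean; inconclusive = half reach 75% but not the mean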;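 note: 0% = cytokine-treated negative control wells and 100% = positive control rescue; higher means more ATP so stronger rescue from cytokine killing; wells of about 40 µL received 100 nL stock; the first replicate is given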
Ecoli rRNA inh OD600: second read-out of Ecoli rRNA inh, no call of its own (marks repeat the call); OD600 change, %; measured here: OD600 growth;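 optical density of the mix in the first replicate; 0 = DMSO median and -100 = no signal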
Ecoli rRNA inh RFP: also measured in Ecoli rRNA inh; calls as there; RFP signal change, %; measured here: RFP humanized mutant strains;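 first replicate; 0 = DMSO median and -100 = no signal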
The depositor's hits bear a star; i = inactive; ? = inconclusive; · = no result given.

SMILES | FGF22 binding | RanGTP-Impb inh | Calb FLC | ALR H2O2 inh | Ecoli rRNA inh | Ecoli rRNA inh OD600 | Ecoli rRNA inh RFP | MLL AF4-AF9 inh | T cruzi repl | Beta cell apopt
COc1ccccc1NC(C#N)c1ccccc1OCc1ccccc1 (centres undefined) | i | -1.8 | 9 | -8 | -1 | 1 | -2.3 | -0.3 | -19 | -6
C=CCN(C(=O)CCC(=O)Nc1cc(C)on1)C(C(=O)NC1CCCC1)c1ccc(CC)cc1 (centres undefined) | i | 1.2 | 14 | -14 | 0 | -12 | -3.1 | 0.2 | 4 | -3
N/C(=N\OC(=O)c1ccc(F)cc1)c1nonc1N | i | -2.3 | -1 | 4 | -1 | 11 | -1.1 | 0.6 | 4 | -1
COc1ccc(S(=O)(=O)N2CCCC2C(=O)NCC(=O)Nc2cccc(Cl)c2C)cc1 (centres undefined) | i | 5.1 | -11 | 3 | 4 | 7 | 3.9 | -9.1 | 23 | ·
CC(=O)Nc1ccc(C(=O)OCC(=O)Nc2ccccc2F)cc1 | i | 3.2 | 9 | -6 | 1 | 9 | -3.3 | 0.6 | -7 | 0
O=C(Cc1ccccc1)Nc1ccc(NC(=O)C2CCCCC2)nc1 | i | 0.4 | -3 | -7 | · | · | · | -2.1 | 3 | -1
CC(C)C[C@@]12C(=O)N(c3cccc(Br)c3)C(=O)N1[C@H](c1ccc(Cl)cc1)[C@@H]1C(=O)N(C3CCCCC3)C(=O)[C@@H]12 | i | 1.3 | 10 | -5 | 1 | 3 | 0.0 | -0.2 | 10 | 8
COc1ccc(-c2nnc(SCc3ccccc3F)o2)cc1 | · | 0.8 | 0 | 0 | · | · | · | · | 7 | 0
COc1cccc(-c2nn(-c3ccccc3)cc2/C=C(\C#N)C(=O)NCCCn2ccnc2)c1 | · | -4.2 | -33 | -6 | · | · | · | · | 33 | 11
Cc1cccc(N2CCN(CC(=O)NCc3ccc(Cl)cc3)CC2)c1C | i | 0.7 | 3 | -1 | -57 | -80 | -16 | 0.5 | 1 | -4
CNS(=O)(=O)c1cccc(C(=O)OCC(=O)N2CCN(C(=O)c3ccco3)CC2)c1 | i | · | · | 2 | 3 | 17 | -0.4 | 3.9 | · | 0
O=C(c1ccc(Br)cc1)N1CCN(S(=O)(=O)c2ccccc2)CC1 | i | 9.3 | -2 | -11 | -2 | -10 | 1.5 | 3.8 | 3 | -3
CN(C)S(=O)(=O)c1cccc(NC(=O)CN(CCO)CC(=O)Nc2cccc(S(=O)(=O)N(C)C)c2)c1 | i | -6.1 | -1 | · | 4 | 10 | 1.6 | 0.5 | -7 | -5
O=C(Cc1ccccc1[N+](=O)[O-])NCCSCc1c(F)cccc1Cl | · | -1.4 | 1 | 0 | · | · | · | · | 4 | 3
N#Cc1nc(-c2ccc(OCc3ccccc3)cc2)oc1N1CCC(C(N)=O)CC1 | · | 1.7 | -4 | 43 | · | · | · | · | -13 | -4
COc1ccc(Cc2nnc(NC(=O)Nc3ccccc3F)s2)cc1OC | i | 2.9 | -11 | -2 | 7 | 7 | 0.4 | 0.4 | -5 | -1
NNC(=O)CCN1CCN(C(c2ccccc2)c2ccccc2)CC1 | i | -4.1 | 0 | -9 | -15 | -31 | 16 | 5.5 | -27 | -3
CCOc1ccc(CC(=O)NCCS(=O)(=O)N2CCN(c3ccccc3)CC2)cc1 | i | -2.6 | -4 | -1 | 3 | 6 | -0.4 | -0.9 | -2 | 1
O=C(NC1CC1)C1CC(=O)N(c2cccc(Cl)c2)C1 (centres undefined) | i | -5.0 | -3 | -8 | 9 | 7 | 2.2 | -2.8 | -13 | -1
CCc1ccc(C(=O)NC(CCSC)C(=O)OC)cc1 (centres undefined) | i | -2.1 | -18 | · | 14 | 10 | -1.1 | 0.3 | -9 | 0
CCOC(=O)c1sc(NC(=O)c2ccc(Cl)s2)cc1C | i | -3.0 | -7 | 3 | 1 | 0 | -2.1 | -3.5 | -2 | ·
COc1ccccc1N(CC(=O)NCCSc1ccc(Cl)cc1)S(C)(=O)=O | i | -3.8 | -20 | 5 | 14 | 17 | 1.7 | 0.4 | -12 | 0
CCCCn1c(=O)cc(N2CCOCC2)[nH]c1=O | i | 1.0 | 0 | 28 | 8 | 11 | -2.1 | -1.0 | -4 | -2
CCOCCCNC(=O)C(NC(=O)CNC(=O)c1ccccc1)c1ccc(C)cc1 (centres undefined) | · | 1.3 | -1 | -5 | · | · | · | · | -6 | -25
Cc1ccc(C(=O)OCC(=O)NCc2ccc(F)cc2)o1 | i | · | · | -4 | 0 | 10 | -0.7 | -3.0 | · | 0
Cc1ccc(NC(=O)COC(=O)CNC(=O)C2CCCCC2)c(Br)c1 | i | 2.9 | -3 | · | 14 | 11 | -0.3 | -0.1 | 7 | -2
CSc1ncccc1C(=O)Nc1ccc(C)cn1 | i | 1.6 | 2 | -3 | 10 | 12 | -0.2 | -1.8 | -2 | ·
O=S(=O)(Cc1ncc(C(F)(F)F)cc1Cl)c1ccccc1 | i | 1.5 | -4 | 0 | 12 | 9 | 2.6 | -7.5 | -5 | -2
CCOC(=O)C1=C(C)NC(=S)NC1c1ccc(OCC(=O)N2CCCCCC2)cc1 (centres undefined) | i | ? | 0 | · | -2 | -3 | 2.1 | 0.5 | 7 | -5
CC(=O)c1cccc(NC(=O)COC(=O)c2n[nH]c3ccccc23)c1 | i | -0.8 | -11 | -3 | -23* | -16* | -3.8* | -0.8 | -3 | -3
CCOc1ccc(S(=O)(=O)Nc2ccc(C(=O)NN)cc2)cc1 | i | 3.4 | 0 | 0 | -2 | -9 | 4.9 | -1.7 | 0 | -9
Cc1cccc(Nc2nnc(SCC(=O)Nc3cccnc3Cl)s2)c1 | · | 3.4 | -1 | · | · | · | · | · | -23 | -16
COc1ccc(CNC(=O)CN(C)S(=O)(=O)c2ccc(Cl)cc2)cc1 | i | -1.5 | 10 | -5 | -8 | 5 | -2.9 | -7.8 | -15 | -4
CCOCCCNC(=O)c1ccc(CS(=O)(=O)Cc2cccc(C)c2)o1 | · | 2.6 | 3 | 1 | 6 | 12 | -2.8 | · | -1 | -5
COc1ccc(/C=C\C(=O)NCc2ccc3[nH]c(C)cc3c2)cc1OC | i | 2.5 | 1 | -1 | -5 | 5 | 5.9 | 6.7 | 2 | -1
O=S(=O)(CCSc1nc2ccccc2o1)Cc1ccccc1 | i | 2.2 | 7 | -1 | 3 | 7 | 5.9 | 2.8 | 13 | 0

A draw from above in order of count of non-hydrogen atoms, descending:
SMILES | FGF22 binding | RanGTP-Impb inh | Calb FLC | ALR H2O2 inh | Ecoli rRNA inh | Ecoli rRNA inh OD600 | Ecoli rRNA inh RFP | MLL AF4-AF9 inh | T cruzi repl | Beta cell apopt
COc1ccc(/C=C\C(=O)NCc2ccc3[nH]c(C)cc3c2)cc1OC | i | 2.5 | 1 | -1 | -5 | 5 | 5.9 | 6.7 | 2 | -1
COc1ccc(CNC(=O)CN(C)S(=O)(=O)c2ccc(Cl)cc2)cc1 | i | -1.5 | 10 | -5 | -8 | 5 | -2.9 | -7.8 | -15 | -4
CSc1ncccc1C(=O)Nc1ccc(C)cn1 | i | 1.6 | 2 | -3 | 10 | 12 | -0.2 | -1.8 | -2 | ·

(more compounds)
SMILES | FGF22 binding | RanGTP-Impb inh | Calb FLC | ALR H2O2 inh | Ecoli rRNA inh | Ecoli rRNA inh OD600 | Ecoli rRNA inh RFP | MLL AF4-AF9 inh | T cruzi repl | Beta cell apopt
CC(=O)Nc1ccc(SCC(=O)OCC(=O)NC(=O)NC2CCCC2)cc1 | i | 0.1 | 10 | -35 | 14 | 12 | 2.8 | -2.4 | -9 | -4
Cc1onc(-c2ccccc2Cl)c1C(=O)N(Cc1ccccc1)C(C)C | i | -1.3 | 4 | · | 0 | 0 | 1.9 | 0.0 | 2 | -1
CCC(C)[C@H](N)c1cn([C@@H](CCCCN)C(=O)N2CCNCC2)nn1 (some centres undefined) | i | 5.8 | 7 | -8 | 11 | 9 | 5.8 | 15 | -6 | 3
Cc1nc2c(-c3ccccc3)cnn2c(N)c1-c1ccccc1 | i | -3.3 | 2 | 1 | -19 | -55 | 3.3 | -5.2 | 14 | 6
Cc1cc(=O)oc2cc(OC(C)C(=O)NCC3CCC(C(=O)O)CC3)ccc12 (centres undefined) | i | 4.9 | -3 | -6 | · | · | · | -0.8 | 3 | -8
COc1cccc(/C=C2\SC(=S)N(NS(=O)(=O)c3ccccc3)C2=O)c1OC | i | -2.9 | 55 | 97* | -24 | -27 | -3.5 | -5.0 | 8 | -2
CCOC(=O)c1cnc(SC2CC(=O)N(c3ccc(C)cc3)C2=O)nc1N (centres undefined) | · | -3.0 | -4 | 16 | · | · | · | · | -16 | -2
Cc1ccccc1C(=O)N1CCC(C(=O)Nc2cccc(F)c2)CC1 | · | 0.8 | 1 | -12 | · | · | · | · | -5 | -2
CCCCc1cc(=O)oc2cc(C)cc(OC(C)C(=O)O)c12 (centres undefined) | · | 8.4 | 2 | -2 | · | · | · | · | -11 | 2
O=C1NC2(CCc3ccccc32)C(=O)N1CCOc1ccc(Cl)cc1 (centres undefined) | · | 0.7 | -10 | -13 | · | · | · | · | -5 | -12
CCOC(=O)c1cc2cc(F)ccc2nc1C | · | 0.2 | -3 | -2 | · | · | · | · | 2 | 2
COc1ccccc1N1CCN(CC(=O)Nc2ccc3c(c2)OCCO3)CC1 | i | 0.7 | 12 | 17 | 5 | 2 | 0.2 | ? | 1 | -3
COc1cc(C#N)ccc1OCC(=O)Nc1cccc(S(=O)(=O)N2CCCC2)c1 | i | -2.2 | -10 | -7 | -26* | -10* | -2.1* | 1.9 | 1 | -1
CCN(CC(=O)Nc1ccccc1C(=O)Nc1ccccc1)Cc1nc2ccccc2c(=O)[nH]1 | i | 0.7 | 0 | · | 7 | 5 | -1.3 | -4.5 | 13 | 6
COc1ccc(CN(C(=O)c2snc(C(N)=O)c2N)C(C(=O)NC2CCCC2)c2ccc(OC)cc2)cc1 (centres undefined) | i | -3.0 | ? | -8 | 12 | 6 | 2.3 | 1.7 | 0 | -1
O=C(N/N=C/c1ccc(OC(=O)c2ccccc2Cl)cc1)c1ccccn1 | · | 1.2 | 6 | -9 | · | · | · | · | -8 | 2
COc1ccc(-c2c3c(=O)n(C)c(=O)n(C)c3cn2-c2ccccc2)cc1 | · | -9.0 | -3 | 1 | · | · | · | · | -12 | -4
O=C(CSc1nncs1)Nc1ccc2[nH]c(=O)[nH]c2c1 | i | -3.9 | 1 | 37 | 4 | 8 | -3.1 | 11 | -2 | ·
COC(=O)c1cc2c(ccc3ccccc32)oc1=O | i | 84* | 1 | -19 | -19 | -16 | -4.9 | -0.5 | -21 | ·
C(#Cc1ccccc1)CN1CCOCC1 | i | 1.2 | -8 | 3 | 16 | 12 | -0.3 | 0.2 | 0 | 0

Screens: PubChem, Broad Institute

Only part of the results is shown; count on the stated rates, not on these rows.
